MbtI inh: MbtI salicylate synthase inhibitors, primary screen, biochemical, fluorescence intensity; purified MbtI enzyme, fluorescence intensity read-out; inhibition, %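 (about 17 µg/mL by stock and volumes)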; 0.89% of 100,000 active; AID 493033, 2011;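 active means above 50% in both replicates, above 80% if mildly self-fluorescent; inactive means the rest, strongly fluorescent compounds included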;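 further: 0% = mean of negative and 100% = mean of positive controls; one replicate is shown; some compounds called inactive have numbers as strong as hits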
Target sequence (P9WFX0 whole entry, looked up): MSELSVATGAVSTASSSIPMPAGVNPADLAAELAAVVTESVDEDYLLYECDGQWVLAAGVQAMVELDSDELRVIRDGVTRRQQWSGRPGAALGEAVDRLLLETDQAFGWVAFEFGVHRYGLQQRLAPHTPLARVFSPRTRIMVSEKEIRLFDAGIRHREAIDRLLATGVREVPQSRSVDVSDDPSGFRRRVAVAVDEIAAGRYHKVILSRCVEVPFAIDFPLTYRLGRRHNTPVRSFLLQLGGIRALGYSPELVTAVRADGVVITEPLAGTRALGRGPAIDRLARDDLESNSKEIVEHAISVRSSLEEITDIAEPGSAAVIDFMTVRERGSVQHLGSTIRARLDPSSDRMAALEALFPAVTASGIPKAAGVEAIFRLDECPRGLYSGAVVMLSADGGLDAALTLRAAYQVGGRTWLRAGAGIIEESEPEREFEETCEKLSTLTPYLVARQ
Mtb MenB inh: M. tuberculosis MenB inhibitors, primary screen, biochemical, absorbance. 1,4-dihydroxy-2-naphthoyl-CoA synthase (Mycobacterium tuberculosis (strain ATCC 25618 / …. MenB enzyme assay, absorbance read-out; some hits fall short of the stated cut. inhibition, %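 (about 12 µg/mL by stock and volumes)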. 0.43% of 100,000 active. AID 540299, 2011;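 active means mean of two replicates above 30%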;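 further: 0% = no compound and 100% = wells with inactive enzyme; the first replicate is given; strong numbers were not always called active; inactives centre near -10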
Polio RdRp inh: poliovirus RdRp elongation inhibitors, primary screen, biochemical, fluorescence polarization, total intensity | Genome polyprotein (Poliovirus type 1 (strain Mahoney)), P03300 | poliovirus polymerase elongation; stronger effect = lower value | % elongation, % (compound at 16.7 µg/mL) | 0.66% of 150,000 active | AID 588519, 2011; in the data active means % elongation below about 90%; further: some results filed as inactive read as strong as hits
Target sequence (P03300 1749-2209 limits assumed): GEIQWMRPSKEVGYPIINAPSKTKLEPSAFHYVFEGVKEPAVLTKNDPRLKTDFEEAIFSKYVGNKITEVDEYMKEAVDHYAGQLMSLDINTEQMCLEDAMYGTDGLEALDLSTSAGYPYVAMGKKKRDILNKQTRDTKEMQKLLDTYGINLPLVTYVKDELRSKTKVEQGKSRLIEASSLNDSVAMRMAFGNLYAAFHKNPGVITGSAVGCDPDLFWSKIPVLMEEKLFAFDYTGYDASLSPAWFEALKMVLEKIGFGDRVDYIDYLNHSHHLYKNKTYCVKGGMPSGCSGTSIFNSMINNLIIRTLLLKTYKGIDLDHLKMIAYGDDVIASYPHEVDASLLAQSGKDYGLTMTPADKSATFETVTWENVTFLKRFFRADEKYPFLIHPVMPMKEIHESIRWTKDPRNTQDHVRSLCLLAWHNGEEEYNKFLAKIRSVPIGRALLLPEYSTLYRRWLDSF
Polio RdRp inh intensity: further read-out of Polio RdRp inh, marked with its call; % elongation; measured here: total intensity read-out; formula for this scale not given here;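 total fluorescence in place of polarization; lower means less elongation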
Starred values were filed as active, the others as inactive; i = inactive; . = not tested or not shown; & = joins results of further samples.

Values run as follows: MbtI inh, Mtb MenB inh, Polio RdRp inh, Polio RdRp inh intensity
- CCOc1ccc(NC(=O)C(C)Oc2ccccc2)cc1 (stereo not drawn)
    ., -5, 114, 116
- CC(CCc1ccccc1)NC(=O)COc1nc2ccccc2nc1N1CCOCC1 (stereo not drawn)
    107, -81, 105, 105
- Cc1cc(C)c(N=C(NC#N)Nc2c(C)cc(C)cc2C)c(C)c1
    -10, -22, 107, 104
- O=C(COc1ccc2ccccc2c1Br)NCc1ccco1
    14, -11, 100, 103
- O=C1CNCC(=O)N1CCc1ccccc1
    2, 6, 100, 101
- COc1ccc(C(=O)N2CCN(c3c(C)cccc3C)CC2)cc1OC
    ., -26, 106, 105
- Cc1cc(C)c2c(=O)[nH]c(=O)n(Cc3ccccc3)c2n1
    8, -12, 136, 129
- Cc1cc(/C=C/C(=O)N2CCN(S(=O)(=O)c3cccs3)CC2)c(C)n1-c1ccnn1C(C)C
    16, -25, 103, 101
- Cc1ccc(N2C(=O)C(CC(=O)Nc3ccc(Cl)cc3)N(CCN3CCN(C)CC3)C2=S)cc1 (stereo not drawn)
    2, 0, 100, 99
- Nc1nc(SCC(=O)N2N=C(c3ccco3)CC2c2cccs2)n[nH]1 (stereo not drawn)
    8, -5, 103, 101

New compounds follow.
Values run as follows: MbtI inh, Mtb MenB inh, Polio RdRp inh, Polio RdRp inh intensity
- COC(=O)c1ccccc1NC(=O)Cn1c(C)ccc1C
    5, -21, 100, 105
- COc1ccc(OCC(=O)N2c3ccccc3C(C)(c3ccccc3)CC2(C)C)cc1 (stereo not drawn)
    11, -45, 105, 109
- COC(=O)/C=C1\SC(=Nc2ccccc2)NC1=O
    1, -27, 104, 104
- O=C(Cc1ccc(S(=O)(=O)N2CCOCC2)s1)Nc1ccc(-c2cn3ccsc3n2)cc1
    -8, -7, 105, 113
- O=C(CSc1nnc(NC2CCCCC2)s1)OCc1nnc(-c2ccccc2)o1
    4, -18, 102, 103
- C=CCN(CC=C)S(=O)(=O)c1ccc(OC)cc1
    -15, -15, 100, 105
- CC1CC1C(=O)NC1CCCCC1C(C)(C)C (stereo not drawn)
    -4, -19, 100, 102
- CC(C)c1ccccc1NC(=O)c1cccc(S(=O)(=O)N(C)C)c1
    -14, ., 103, 107
- Cc1nn(C)c2ncc(C(=O)c3cc(F)ccc3O)cc12
    9, 3, 101, 110
- CC1OC23CCCCC2C(C#N)(C#N)C1(C#N)C(=N)O3 (stereo not drawn)
    18, -15, 102, 102

Remaining list, next part.
Values run as follows: MbtI inh, Mtb MenB inh, Polio RdRp inh, Polio RdRp inh intensity
- O=C(NCCNC1CCCC1)c1cccs1
    0, -11, 103, 103
- CCOc1ccc(CC(=O)NCc2cn3ccc(C)cc3n2)cc1
    106, -1, 102, 109
- Nc1nc(CSC(=S)N2CCCCC2)nc(Nc2ccccc2)n1
    3, -30, 102, 104
- CC1CCN(C(=O)c2ccccc2Br)CC1
    ., -17, 110, 101
- COc1ccc(C(O)c2nc3ccccc3s2)cc1 (stereo not drawn)
    -4, -2, 101, 102
- Cc1cc(CNC(=O)c2cc(C)n(C)n2)c(C(F)(F)F)o1
    -8, -9, 98, 102
- OCC(CO)(CO)NC(=S)Nc1cc(Cl)cc(Cl)c1
    26, -8, 105, 95
- CCN(C(=O)Cc1ccc(NC2=NC3CS(=O)(=O)CC3S2)cc1)c1ccccc1 (stereo not drawn)
    -1, -1, 101, 103
- CCn1c(CNC(=O)c2ccco2)nnc1SCC(=O)c1ccccc1
    -6, -41, 101, 104
- COc1ccccc1OC(=O)NC(=O)C(F)(F)F
    -3, -17, 111, 110

Carrying on.
Values run as follows: MbtI inh, Mtb MenB inh, Polio RdRp inh, Polio RdRp inh intensity
- CCCn1c(=S)[nH]c2cc(C(=O)N3CCN(C)CC3)ccc2c1=O
    -15, -22, 103, 103
- CC(C)Cn1c(C23CC4CC(CC(C4)C2)C3)n[nH]c1=S
    10, -16, 99, 102
- CCSc1nnc(NC(=O)c2ccc3c(c2)NC(=O)CS3)s1
    15, 5, 104, 96
- Nc1ccc(N2CCOCC2)c2nonc12
    18, -140, 85*, 78*
- CN(CC(=O)N1CCc2ccccc21)S(=O)(=O)c1ccc2[nH]c3c(c2c1)CCCC3
    26, -17, 101, 102
- CNC(=O)CSCc1ccc(Br)cc1
    ., 2, 98, 102
- O=C(NCCc1c[nH]c2ccc(Cl)cc12)C1CCCO1 (stereo not drawn)
    -11, -21, 101, 103
- CCn1c(CCc2nnc(SCC(=O)c3ccccc3)n2CC)nnc1SCC(=O)c1ccccc1
    -10, -15, 104, 101
- O=C(Nc1sc2c(c1C(=O)N1CCCCC1)CCCC2)c1ccco1
    -2, -60, 104, 101
- Cc1[nH]cc(Br)c(=O)c1OCC(=O)O
    -6, -24, 102, 95

Next section:
Values run as follows: MbtI inh, Mtb MenB inh, Polio RdRp inh, Polio RdRp inh intensity
- C=CCNC(=O)C1CCN(S(=O)(=O)c2cccc(C(F)(F)F)c2)CC1
    3, 22, 102, 104
- O=C(O)CN=C1NC2(CCCC2)Cc2ccccc21
    -1, 34*, 100, 101
- CC(C)Sc1n[nH]c(=S)n1C
    42, -19, 109, 108
- CN1C(=O)C2ON(c3ccccc3)C(c3ccccc3)C2C1=O (stereo not drawn)
    -4, -26, 104, 102
- Cc1ccccc1C(=O)OC(C)CN1CCCC1 (stereo not drawn)
    ., -9, 104, 104
- CN(C)c1ccc(-c2nc3ccccc3s2)cc1
    i, -42, 102, 99
- CCN(CC)c1ccc(NC(=O)CNCC2CCCCC2)c(C)c1
    -1, -20, 105, 103
- CCc1oc2ccccc2c1C(=O)c1cc(Br)c(O)c(Br)c1
    -17, 4, 101, 100
- CC1CC(C)CN(C(=O)CNC(=O)Cn2cnc3ccccc3c2=O)C1 (stereo not drawn)
    18, -22, 100, 101
- CCCn1c(CCC(=O)O)ccc1-c1ccccc1
    88, 12, 102, 111

Later entries
Values run as follows: MbtI inh, Mtb MenB inh, Polio RdRp inh, Polio RdRp inh intensity
- CN1C(=O)C(C)(C)c2cc(S(=O)(=O)N(C)CC(=O)NCc3ccccc3)ccc21
    -11, 5, 101, 100
- Cc1cccc(C)c1NC(=O)C1C2C=CC(C2)C1C(=O)NCc1ccccn1 (stereo not drawn)
    -6, -50, 104, 101
- CN(C)Cn1c(=S)oc2cc(S(=O)(=O)Nc3ccccc3Cl)ccc21
    -4, -17, 101, 107
- O=C(NCCCc1ccccc1)c1cccs1
    -5, -61, 105, 99
- C=CCNC(=O)c1c(N)n(-c2cccc(S(N)(=O)=O)c2)c2nc3ccccc3nc12
    110, -72, 99, 95
- O=C(CSCc1ccccc1)NCc1ccc2c(c1)OCO2
    ., 2, 106, 113
- O=C(CN1CCN(c2ccc(O)cc2)CC1)c1ccc[nH]1
    78, 3, 106, 103
- N#CC1(N2CCOCC2)CCCCC1
    2, -72, 101, 102
- O=C1O[C@@H]2C[C@H]3C[C@@H]2[C@@H]1[C@H]3C(=O)N1CCN(c2ccccc2)CC1
    2, -3, 100, 102
- CC(C)c1nc2ccccc2n1C(=O)c1ccccc1C(=O)O
    -4, -6, 102, 107

Copied from the listing for reference:
Values run as follows: MbtI inh, Mtb MenB inh, Polio RdRp inh, Polio RdRp inh intensity
- CN1C(=O)C(C)(C)c2cc(S(=O)(=O)N(C)CC(=O)NCc3ccccc3)ccc21
    -11, 5, 101, 100
- Cc1cccc(C)c1NC(=O)C1C2C=CC(C2)C1C(=O)NCc1ccccn1 (stereo not drawn)
    -6, -50, 104, 101
- CN(C)Cn1c(=S)oc2cc(S(=O)(=O)Nc3ccccc3Cl)ccc21
    -4, -17, 101, 107

Carrying on:
Values run as follows: MbtI inh, Mtb MenB inh, Polio RdRp inh, Polio RdRp inh intensity
- Cc1cc(C(=O)CSc2nnc(SCC(=O)c3cc(C)n(CC4CCCO4)c3C)s2)c(C)n1CC1CCCO1 (stereo not drawn)
    51, -30, 105, 110
- Cc1ccc(S(=O)(=O)N2CCCC2C(=O)OCC(=O)Nc2cc(C)on2)cc1 (stereo not drawn)
    -13, -15, 105, 105
- CSCCC(=O)N1CCN(c2ncccn2)CC1
    -21, -2, 102, 110
- O=C(NCc1cccs1)c1ccc(=O)[nH]c1
    -4, -20, 105, 111
- C(=N\c1nc2ccccc2n1CCN1CCCCC1)/c1ccc2c(c1)OCO2
    -11, -29, 104, 100
- O=C(CN1CCC(O)(c2ccccc2)CC1)NC1CCCCC1
    -8, -53, 105, 103
- CC[C@H](C)[C@H]1O[C@]2(CC[C@@H]1C)C[C@@H]1C[C@@H](C/C=C(\C)C(O[C@H]3C[C@H](OC)[C@@H](O[C@H]4C[C@H](OC)[C@@H](O)[C@H](C)O4)[C@H](C)O3)[C@@H](C)/C=C/C=C3\CO[C@@H]4[C@H](O)C(C)=C[C@@H](C(=O)O1)[C@]34O)O2 (stereo partly drawn)
    0, -3, 102, 102
- CN1CCCN(C(=O)c2ccc(C#N)cc2)CC1
    -13, ., 102, 107
- CCCN(CCC)S(=O)(=O)C1CCS(=O)(=O)C1 (stereo not drawn)
    15, -29, 104, 101
- CCn1c(SCc2c(F)cccc2Cl)nc2cc(S(N)(=O)=O)ccc21
    4, 2, 106, 99

Further results follow:
Values run as follows: MbtI inh, Mtb MenB inh, Polio RdRp inh, Polio RdRp inh intensity
- CC(Sc1nnc(-c2ccc3c(c2)OCO3)o1)C(N)=O (stereo not drawn)
    24, -14, 99, 101
- O=C(O)c1cc(-c2ccccc2Cl)on1
    ., 29, 104, 107
- FC(F)(F)c1cc(-c2ccccc2)nc2ncnn12
    118, 1, 101, 102
- COC(=O)CN1C(=S)N(c2ccccc2)C(=O)C1CC(=O)Nc1ccc(F)cc1 (stereo not drawn)
    -5, -8, 103, 106
- CCN(Cc1cn2cccnc2n1)C1CCCCC1
    106, -5, 107, 109
- O=C(/C=C/c1ccc(Br)o1)Nc1ccc(F)cc1F
    23, ., 101, 100
- O=S(=O)(c1ccccc1)c1cccc(S(=O)(=O)N2CCCC2)c1
    1, -9, 101, 102
- CC(Oc1ccc(Br)cc1Cl)C(=O)NC(N)=O (stereo not drawn)
    2, -8, 103, 109
- CC(=O)N1c2ccc(S(=O)(=O)NC(C(=O)Nc3nccs3)C(C)C)cc2CC1C (stereo not drawn)
    -27, -4, 104, 102
- CCOC(=O)C1=C(Cn2ccnc2)NC(=O)NC1c1ccc(OC(C)C)cc1 (stereo not drawn)
    6, -13, 100, 103

Other compounds.
Values run as follows: MbtI inh, Mtb MenB inh, Polio RdRp inh, Polio RdRp inh intensity
- CCC(=O)c1cn(CC(=O)N(CC)CC)c2ccccc12
    ., 3, 105, 97
- CCN1CCC(NC(C)c2ccc(OC)cc2)CC1 (stereo not drawn)
    85, -30, 103, 105
- O=C1NC(=O)c2ccc3c4c(ccc1c24)C(=O)N(c1ccccc1)C3=O
    7, 7, 101, 100
- O=C(NCCCn1ccnc1)c1cc(-c2cccs2)on1
    14, -14, 101, 102
- Cc1cc(C(=O)COC(=O)c2ccc(S(=O)(=O)N(C)C)cc2)c(C)n1-c1ccc2c(c1)OCO2
    -8, 2, 100, 104
- CCc1ccc2nc(NC(=O)c3c(C)oc(-n4cccc4)c3C#N)sc2c1
    i, -30, 104, 104
- COC(=O)c1ccc(COC(=O)c2oc3ccc(OC)cc3c2C)o1
    101, -15, 103, 104
- O=C(NC1CCCc2ccccc21)c1cc2ccccc2o1 (stereo not drawn)
    -7, -24, 103, 109
- CC(=O)Oc1ccc(C(=O)O)cc1OC(C)=O
    -6, 9, 98, 96
- O=C(Nc1cnc2sccn2c1=O)c1ccccc1
    10, 19, 100, 103

An excerpt from above in order of molar mass, largest number first.
Values run as follows: MbtI inh, Mtb MenB inh, Polio RdRp inh, Polio RdRp inh intensity
- O=C1NC(=O)c2ccc3c4c(ccc1c24)C(=O)N(c1ccccc1)C3=O
    7, 7, 101, 100
- O=C(NCCCn1ccnc1)c1cc(-c2cccs2)on1
    14, -14, 101, 102
- O=C(Nc1cnc2sccn2c1=O)c1ccccc1
    10, 19, 100, 103
- CCN1CCC(NC(C)c2ccc(OC)cc2)CC1 (stereo not drawn)
    85, -30, 103, 105
- CC(=O)Oc1ccc(C(=O)O)cc1OC(C)=O
    -6, 9, 98, 96

Following part
Values run as follows: MbtI inh, Mtb MenB inh, Polio RdRp inh, Polio RdRp inh intensity
- CCOC(=O)c1cnc2nc(CCc3ccccc3)[nH]n2c1=O
    90, -24, 102, 106
- O=C(NCCc1ccccc1)c1ccc(=O)[nH]n1
    10, 8, 97, 99
- CNCc1cc2ccccc2o1
    -5, -16, 102, 103
- O=S(=O)(NCCCn1ccnc1)c1ccc2ccccc2c1
    ., -8, 102, 104
- CCCCCCCCCCCCCCCC(=O)NCCO
    -19, 3, 101&100, 103&101
- Cc1ccc2c(=O)c(C(=O)c3ccccc3)cn(CC(N)=O)c2n1
    -1, -1, 100, 108
- CCOC(=O)c1cc(C)[nH]c(=S)c1C#N
    ., -88, 105, 108
- COc1nnc(-c2ccccc2)c2ccccc12
    -2, 5, 103, 104
- NC(=O)C1CCN(C(=O)c2sc3ccccc3c2Cl)CC1
    2, ., 102, 96
- CCOC(=O)c1cc(-c2ccc(S(=O)(=O)N(Cc3cccs3)C3CCCCC3)s2)on1
    -5, -22, 102, 102
